VDR inh = vitamin D3 receptor (human) inhibition. Potency, µM, for the others: max response, negative = inhibition, most hits filed as inhibitors. 0.93% of 400,000 active. P11473. VDR-SRC2-3 peptide fluorescence polarization, 2 h; active = well fitted inhibition curve with a large enough effect; inconclusive = small, poorly fitted or top-dose-only effect, or another doubt; inactive = no such curve, though single readings can be large or run the other way; also: series mostly up to about 120 µM
Target sequence (P11473 whole entry, looked up): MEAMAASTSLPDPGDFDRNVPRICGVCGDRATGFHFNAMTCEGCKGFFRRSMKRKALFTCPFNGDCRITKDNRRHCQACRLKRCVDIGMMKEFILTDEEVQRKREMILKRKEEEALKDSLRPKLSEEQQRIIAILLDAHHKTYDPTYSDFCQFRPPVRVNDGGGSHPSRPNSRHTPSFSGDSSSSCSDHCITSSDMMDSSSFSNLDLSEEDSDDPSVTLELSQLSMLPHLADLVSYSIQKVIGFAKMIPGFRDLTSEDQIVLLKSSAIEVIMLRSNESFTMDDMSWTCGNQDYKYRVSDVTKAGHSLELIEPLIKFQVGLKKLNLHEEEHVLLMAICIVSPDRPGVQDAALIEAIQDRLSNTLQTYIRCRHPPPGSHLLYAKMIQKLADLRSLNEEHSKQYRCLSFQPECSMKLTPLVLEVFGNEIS
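VDR–SRC2-3 interaction, FP format. Cmpds 23 nl via pintool, brief spin, 2 h ambient incubation.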
* hit, by the source's call; ? = inconclusive; & = joins results of further samples. % is scaled to controls: 0 for no effect and ±100 for the full control effect; potency is read from the fitted curve at half-maximal effect.

SMILES	VDR inh
Cc1cc(C=C2C(=O)c3ccccc3C2=O)c(C)n1-c1ccc(Cl)cc1	-4%
CCCCN(C(=O)C1CCC1)c1c(N)n(CC(C)C)c(=O)[nH]c1=O	9%
Cc1ccc(Cl)cc1NC(c1ccc(F)cc1)c1nnc(-c2ccccc2)o1 (configuration not stated)	6%
O=C(Cn1c(=O)oc2cc(S(=O)(=O)N3CCCC3)ccc21)N1CCN(C2CCCCC2)CC1	-12%
Cc1ccc(C(=O)Nc2sc(C)c(-c3ccccc3)c2C(N)=O)cc1[N+](=O)[O-]	-26%
CSCCC(NC(=O)c1ccc(Cl)cc1)C(=O)OCC(=O)Nc1cc(Cl)ccc1C (configuration not stated)	7%
COc1cc(OC)cc(C(=O)Nc2cc(C)on2)c1	-29%
O=C(CN1C(=O)NC2(CCCC2)C1=O)c1ccc(Cl)s1	3%
Cc1ccc(N(CCC#N)C(=O)CSc2ccc3c(c2)OCCO3)cc1	-15%
CCCC(=O)c1ccc(-c2ccccc2)cc1	5%
CN1CCN(NC(=O)c2cc(-c3cccc(Cl)c3)nc3ccccc23)CC1	8%
C#Cc1ccc([C@H]2C=C(C(=O)OCC=C)O[C@@H](OCc3ccc(CO)cc3)C2)cc1	-6%
Nc1n[nH]c2ccccc12	-1%
COc1cc(C(CCN2CCN(c3ccccc3)CC2)c2c(OC)cc(OC)c3ccc(=O)oc23)cc(OC)c1OC (configuration not stated)	3%&-7%
CC(C)C[C@H](NC(=O)c1[nH]cnc1C(=O)N[C@H](C)c1ccccc1)C(=O)OC(C)(C)C	-9%
CC(=O)Nc1ccc(S(=O)(=O)NCC(=O)NCCc2ccc(S(N)(=O)=O)cc2)cc1	11%
NC(=NCc1ccco1)NC(=O)c1ccc(Cl)cc1	-14%
COc1ccccc1CNC(=O)C1CC(c2ccccc2[N+](=O)[O-])=NO1 (configuration not stated)	0%
COC(=O)c1ccc(OC(=O)CCN2c3ccccc3Sc3ccccc32)cc1	3%
O=C(COC(=O)CNS(=O)(=O)c1ccc(F)c(F)c1F)NCCc1ccccc1	-10%
FC(F)(F)c1cccc(N2CCN(CC3CC=CCC3)CC2)c1 (configuration not stated)	-1%
O=C(Nc1cccc(-c2csc(Nc3ccc(Cl)cc3)n2)c1)c1ccccc1	2%
CC(=O)Nc1ccc(CN2CCN(CCC(C)C)C(CCO)C2)cc1 (configuration not stated)	8%
CCCc1cc(=O)[nH]c(SCc2cc(=O)oc3c(C)c(C)ccc23)n1	-2%
COc1ccc(OCC(=O)Nc2ncc3c(n2)CC(C)(C)CC3=O)cc1	-5%
Cc1ccc2nc(SCC(=O)N3CCN(C(=O)c4ccco4)CC3)[nH]c2c1	-4%
COc1ccc(NC(=O)C(NS(=O)(=O)c2cccc3nsnc23)c2ccccc2)cc1 (configuration not stated)	-10%
CCSc1nnc(NC(=O)COc2cccc3ccccc23)s1	20%
CCOc1ccc(S(=O)(=O)NN=C2CCN(C(C)=O)CC2)cc1	-22%
Cc1cc(C(=O)N2CCCC(C(=O)c3cccc(C(F)(F)F)c3)C2)nc(C)n1 (configuration not stated)	-13%
CCCn1c(N)c(C(=O)COC(=O)c2cccc(S(=O)(=O)N3CCOCC3)c2)c(=O)[nH]c1=O	-3%
CN(C)C=NC(=O)/C(C#N)=C/c1ccccc1	-8%
O=S(=O)(NCc1ccc2c(c1)OCO2)c1cccc2cccnc12	-4%
CC1CCc2nn(CC(=O)NCCC3=CCCCC3)cc2C1 (configuration not stated)	-15%
CCCCCCCCOc1ccc(C(=O)O)cc1	-1%
Cc1ccc(N2CC(C(=O)Nc3nnc(SCc4cccnc4)s3)CC2=O)cc1 (configuration not stated)	-8%
Cc1ccc(NC(=O)CCn2c(=O)oc3ccccc32)cc1	-16%
Cc1cc(C)c(N)cc1C	14%
O=C(c1ccco1)N1CCN(C(=O)c2cnn3cccnc23)CC1	-11%
COc1cccc([C@@H]2Oc3ccc(Br)cc3C(=O)[C@H]2OC(=O)NCc2ccc3c(c2)OCO3)c1	4%
COc1ccc(-c2cn3c(n2)sc2cc(C(=O)NCCCN4CCN(C)CC4)ccc23)cc1	-4%
c1cn2c(NC3CCCC3)c(-c3ccc(N4CCOCC4)cc3)nc2cn1	-6%
COc1cc(OC)cc(C(=O)NCC(=O)NCC(c2ccco2)N2CCCCC2)c1 (configuration not stated)	0%
O=C(CCSc1ccccc1)NC(=O)COC(=O)c1ccc(OC(F)F)cc1	14%
O=C(Nc1nc(-c2ccco2)c(-c2ccco2)s1)c1ccc(F)cc1F	?
Cc1c(Cl)c([N+](=O)[O-])nn1Cc1ccc(C(=O)NN)o1	-29%
CCOC(=O)c1c(C)[nH]c(C(=O)CN2C(=O)NC3(CCCC3)C2=O)c1C	6%
O=C(COC(=O)c1ccc2c(c1)OCO2)NC1CCS(=O)(=O)C1 (configuration not stated)	-4%
O=C(/C=C/c1cccc(Cl)c1)NCc1ccccc1	-3%
COC1=C(C)C(O)=C(C(=O)/C=C/c2ccccc2)C(=O)C1(C)C	20µM*
CC(C)(C)NC(=O)c1cccc(NC(=O)c2ccc3c(c2)C(=O)N(C(C)(C)C)C3=O)c1	-5%
CC(NC(=O)Cc1ccc(S(=O)(=O)N2CCOCC2)s1)c1ccc(Cl)cc1Cl (configuration not stated)	4%
Cc1cccc(NC(=S)NCCC(c2ccccc2)c2ccccc2)c1	?
COc1ccc(Br)cc1S(=O)(=O)N1CCOCC1	6%
Cc1ccc(-c2cc(C(=O)N3CCC(C)CC3)c3ccccc3n2)cc1	1%
Cc1c(-n2cccc2C=O)cccc1[N+](=O)[O-]	8%
CC(OC(=O)Cn1cc(C(F)(F)F)ccc1=O)C(=O)NC(C)c1ccc(Cl)cc1Cl (configuration not stated)	-8%
CCS(=O)(=O)N1CCN(C2CCC(C)CC2)CC1 (configuration not stated)	-3%
CS(=O)(=O)N(CC(=O)NC1CCCCC1)c1cccc(Cl)c1	15%
O=C(CN1C(=O)c2ccccc2C1=O)Nc1cccc2cccnc12	5%

(next part)
SMILES	VDR inh
Cc1nn(C)c(C)c1NC(=O)CSc1nc(-c2ccccc2F)nc2c1cnn2-c1ccccc1	2%
O=C(CN1C(=O)CCC1=O)Nc1nc(-c2cccs2)cs1	?
CCOC(=O)c1cnc2ccc(C(=O)OC)cc2c1NCCc1ccc(OC)c(OC)c1	-12%
O=C(Nc1ccc(Cl)cc1)N1CCCN(Cc2ccc(F)cc2)C1	-5%
COc1ccccc1NC(=O)c1ccc(NC(=O)COC(=O)c2cccnc2Cl)cc1	-9%
C[C@@H]1NC(=O)N(CCCn2ccnc2)C1=O	3%
COc1cc(Cl)c(C)cc1Nc1c2c(nc3ccccc13)CCC2	-17%
Cc1ccc(Nc2ncnc3c2cnn3-c2ccc(C)cc2)cc1	2%
O=C(O)c1cc(-c2ccco2)nc2ccccc12	79µM*
CS(=O)(=O)N1CCC2(CCN(c3ccccc3)CC2)CC1	4%
O=C(CCCCCNC(=O)c1ccccc1)N/N=C/c1ccc(F)cc1	4%
CCOc1ccc(NC(=O)C2(c3cccs3)CCOCC2)cc1	1%
CCn1cc(C(=O)NCCc2ccc(Cl)cc2)c(=O)c2cc(S(=O)(=O)N3CCC(C)CC3)ccc21	-5%
CCN1CCN(Cc2nnc(-c3ccccc3)o2)CC1	-29%
CN(C)C(C)(C)C#CCC(c1ccccc1)c1ccccc1	-21%
COc1ccc(C(=O)NCc2nnc(SCC(=O)NCc3ccco3)o2)cc1	-32%
CCC(CO)Oc1cc(NCc2ccc(O)cc2)c2ncn(C(C)C)c2c1 (configuration not stated)	-6%
O=C(O)c1cccc(-n2nnnc2SCc2ccccc2Cl)c1	-6%
CC(NCCC(c1ccccc1)c1ccccc1)c1ccccc1 (configuration not stated)	-14%&0%
CO/N=C/c1cccn1-c1nccc(OC)c1C#N	-11%

2 compounds picked at random from the list so far:
SMILES	VDR inh
CO/N=C/c1cccn1-c1nccc(OC)c1C#N	-11%
O=C(CN1C(=O)CCC1=O)Nc1nc(-c2cccs2)cs1	?

Additional results follow:
SMILES	VDR inh
COc1nc(C)cc(C)c1S(=O)(=O)c1ccc(Cl)cc1	-17%
C[C@H](NC(=O)C1CCN(S(=O)(=O)c2ccccc2)CC1)C(=O)NCc1ccco1	-8%
O=C(Nc1ccc2c(c1)OCO2)C1CCCCN1S(=O)(=O)c1ccccc1 (configuration not stated)	11%
COC(=O)c1ccc(NS(=O)(=O)c2cc(-c3cc(C)no3)ccc2OC)cc1	6%
COc1cccc(-c2nc(C=O)cs2)c1	-5%
CCOC(=O)C1CCCN(S(=O)(=O)c2cc3c4c(c2)CCN4C(=O)CC3)C1 (configuration not stated)	-3%
COc1cccc2cc(/C(C)=N/Nc3nc(-c4cc(C)ccc4C)cs3)c(=O)oc12	-29%
O=C(COc1cccc2c1CCN(Cc1ccccc1)C2=O)NCc1ccco1	-8%
CC(C)c1ccc2oc(-c3ccc(NC(=O)c4cccc(Br)c4)cc3)nc2c1	16%
Cc1sc2ncnc(SCC(=O)c3cccs3)c2c1C	0%
Cc1ccc(NC(=O)C2CCN(S(=O)(=O)c3ccc(C(C)(C)C)cc3)CC2)cc1S(=O)(=O)N1CCOCC1	-7%
O=C(Cc1c(Cl)cccc1Cl)Nc1ccncc1	-2%
CCCSc1nnc(CNS(=O)(=O)c2ccc(C)cc2)n1C	3%
CC(NC(=O)CCCc1nnc2n(C)c(=O)c3sccc3n12)c1ccccc1 (configuration not stated)	-8%
Cn1c(SCC(=O)Nc2nccs2)nnc1-c1ccco1	20%
O=C(O)c1[nH]c2ccccc2c1C(c1ccccc1)c1c(C(=O)O)[nH]c2ccccc12	?
COc1nc2ccccc2c(=O)n1OCC(C)C	-1%
Oc1ccc(C[C@@H]2CNC(=S)N2CCc2cc(C(F)(F)F)cc(C(F)(F)F)c2)cc1	-10%
COc1ccc(-c2coc3cc(O)ccc3c2=O)cc1OC	-10%
Nc1c(Cl)cc(-c2cn(CCC(=O)O)c(-c3ccc(Cl)nc3)n2)cc1Cl	-15%
C=CCSC1=N/C(=C\c2cc(OCC)c(OC(C)=O)c([N+](=O)[O-])c2)C(=O)S1	-30%
Cc1ccc(C(=O)N/C(=C\c2ccc(-c3cc(Cl)ccc3Cl)o2)C(=O)NCc2cccnc2)cc1	-2%
O=C(Nc1ccn(CCCNCc2ccc3c(c2)OCO3)c(=O)n1)OCc1ccccc1	9%
COc1ccc(C(=O)CSc2c(C(C)C)cnc3c2c(=O)n(C)c(=O)n3C)cc1	-4%
COc1ccc(NC(=O)CSc2nc3n[nH]c(C)c3c(=N)n2-c2ccc(Cl)c(C)c2)cc1OC	3%
COc1cc2cc(CNc3ccccc3)c(=O)n(CC(=O)Nc3ccc(C)c(Cl)c3)c2cc1OC	4%
CC(=O)Cc1nsc(NC(=O)c2ccco2)n1	6%
CC(=O)Nc1ccc(Nc2ncnc3c2nnn3Cc2ccccc2Cl)cc1	15%
CC[n+]1c(/C=C/c2c[nH]c3ccccc23)ccc2cc(C)ccc21	20%
CC(C)c1nc2cc(C(=O)N3CCNC(=O)C3c3cccc(F)c3)ccc2o1 (configuration not stated)	-9%
NS(=O)(=O)c1cccc(NS(=O)(=O)c2ccc3ccccc3c2)c1	8%
CC1CN(C(=O)CN2C(=O)c3ccccc3S2(=O)=O)CC(C)O1 (configuration not stated)	-9%
COc1cc(NC(=O)CN2C(=O)C(=O)N(CC(C)C)C2=O)cc(OC)c1	7%
CN(C)S(=O)(=O)N1CCC(Oc2ccc(C(=O)NC3Cc4ccccc4C3)cc2)CC1	8%
Cc1ccc(C)c(NS(=O)(=O)c2cc(C(=O)Nc3ccccc3-c3ccccc3)ccc2C)c1	-12%
C=C(C)CN(CC)c1ccc(N2C(=O)CCCC2=O)cc1[N+](=O)[O-]	4%
COc1ccc(/C=C(\C#N)C(=O)OCC(=O)Nc2c(C)cccc2C(C)C)cc1	-18%
COc1ccc([N+](=O)[O-])cc1N(CC(O)CN(CC(C)C)CC(C)C)S(=O)(=O)c1ccc(C)cc1 (configuration not stated)	12%
Cc1cccc(C)c1NC(=O)NCc1ccco1	-15%
CN(C(=O)c1cccc(NC(=O)Cc2ccc(NC(=O)C3CCN(C(=O)C4CCC4)CC3)cc2)c1)C1CCCC1	-18%
CC(C)c1ccc(NC(=O)c2cccn2-c2nnc(N3CCCCC3)s2)cc1	2%
O=C(CN1CCN(Cc2ccc(Cl)cc2)C1=O)NCc1ccc(F)cc1	8%
COc1ccc(OC)c(Nc2c3c(nc4ccccc24)CCC3)c1	-2%&-2%
CN(C)c1ccc(C(CNS(=O)(=O)c2ccc(Br)cc2)N2CCCC2)cc1 (configuration not stated)	4%
CCCCNC(=O)N1CCOCCOCCN(C(=O)NCCCC)CCOCCOCC1	-8%
COC(=O)c1c(NC(=O)C(=O)N2CCOCC2)sc2c1CCCC2	2%
COc1cccc(NC(=O)CCC(=O)N2CC(C)Oc3ccc(C)cc32)c1 (configuration not stated)	-9%
CCCS(=O)(=O)c1nc(S(=O)(=O)c2ccc(C)cc2)c(N2CCC(C(N)=O)CC2)s1	-8%
CC1(C)Cc2c(sc3c2c(=N)n(Cc2ccco2)c(=O)n3CC(=O)Nc2ccccc2)CO1	-7%
COc1ccc(C=C2C(=O)c3ccccc3C2=O)cc1O	-7%
CCOc1ccc(-n2nnnc2-c2nc3ccccc3s2)cc1	-11%

5 entries out of the list above, arranged by their value in VDR inh, descending:
SMILES	VDR inh
CC(C)c1ccc(NC(=O)c2cccn2-c2nnc(N3CCCCC3)s2)cc1	2%
CC1(C)Cc2c(sc3c2c(=N)n(Cc2ccco2)c(=O)n3CC(=O)Nc2ccccc2)CO1	-7%
CCCS(=O)(=O)c1nc(S(=O)(=O)c2ccc(C)cc2)c(N2CCC(C(N)=O)CC2)s1	-8%
COc1cccc(NC(=O)CCC(=O)N2CC(C)Oc3ccc(C)cc32)c1 (configuration not stated)	-9%
CCOc1ccc(-n2nnnc2-c2nc3ccccc3s2)cc1	-11%

Screening results from PubChem BioAssay.

A portion of the library; count on the stated rates, not on these rows.
